# Assay outcomes as filed in PubChem.
# RECQ1 helicase – inhibitors of human RECQ1 DNA helicase; P46063; RECQ1 DNA unwinding, red fluorescence kinetic read; Potency, µM (titrated, usually from 57.3 µM), without a hit: top-dose activity, negative = inhibition, actives largely listed as inhibitors; hit rate 0.54% among 240,000; AID 2549; active = well fitted inhibition curve with a large enough effect; inconclusive = small, poorly fitted or top-dose-only effect;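 note: plate controls were vehicle for no effect and no enzyme for full effect; nearly all actives have a fitted effect of over 30% in size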
#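 RECQ1T1 50 nM; forked duplex (20 bp + 30-nt ss tails) 200 nM, ATP 2 mM final; pH 8.0, 2 mM MgCl2, 2.5 ug/ml poly(dI-dC); 15 min compound preincubation; discontinuous kinetic read over 2 h at RT.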
# GoLoco inh red – inhibitors of human Gai1-RGS12 GoLoco interaction (red fluorophore); Potency, µM (highest dose often 61.6 µM), for inactives: at the highest dose activity, negative = inhibition, usual class: inhibitors; P63096; AID 880; hit rate 0.44% among 230,000; Gai1:RGS12 GoLoco peptide FP, rhodamine, 10 min; active = well fitted inhibition curve with a large enough effect, not every such curve was filed as active; inactive = no such curve, though single readings can be large or run the other way; note: nearly all actives have a fitted effect of over 30% in size; many of its hits are not listed in these tables
# Target sequence (P63096 whole entry, looked up): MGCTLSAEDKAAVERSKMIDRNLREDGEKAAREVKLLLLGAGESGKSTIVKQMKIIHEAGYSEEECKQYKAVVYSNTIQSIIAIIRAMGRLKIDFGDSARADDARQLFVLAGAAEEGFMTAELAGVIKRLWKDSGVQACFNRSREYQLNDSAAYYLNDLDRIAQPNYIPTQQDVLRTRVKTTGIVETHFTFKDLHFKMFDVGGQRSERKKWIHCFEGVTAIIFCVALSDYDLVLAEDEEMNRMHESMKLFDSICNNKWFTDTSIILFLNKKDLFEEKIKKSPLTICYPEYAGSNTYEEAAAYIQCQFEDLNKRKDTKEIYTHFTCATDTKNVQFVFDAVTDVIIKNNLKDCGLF
# KDM4E inh – JMJD2E (human) inhibition. B2RXH2. JMJD2E catalytic domain, FDH-coupled NADH fluorescence (FDH is formaldehyde dehydrogenase). Potency, µM (titrated, usually from 57.1 µM), without a hit: top-dose activity change, negative = inhibition, actives largely listed as inhibitors. hit rate 1.6% among 230,000. AID 2147; active = well fitted inhibition curve with a large enough effect, not every such curve was filed as active; inconclusive = small, poorly fitted or top-dose-only effect, or another doubt; inactive = no such curve, though single readings can be large or run the other way;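 note: 0% = wells with enzyme and -100% = buffer wells without enzyme; nearly all actives have a fitted effect of over 50% in size; many of its hits are not listed in these tables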
# * marks the source's active call; other numbers are inactive results; i = inactive; ? = inconclusive; · = not tested or not shown; & = joins results of further samples; ! = a repeat was not active; [ ] = remark or other dose. Unless noted, % is set by controls: 0 for no effect and ±100 for the full control effect; potency is the fitted concentration of half-maximal effect.
RECQ1 helicase | GoLoco inh red | KDM4E inh | molecule
-6% | -4%&3% | · | O=C1O[C@H]([C@@H](O)CO)C(O)=C1O
i | 7%[21.6 µM] | -3%[25.5 µM] | C[C@@]12CC[C@@H]3c4ccc(O)cc4CC[C@H]3[C@H]1CC[C@H]2O
-20%&-3% | 3%&1% | ? | N[C@@H](CO)C(=O)O
· | -3%[14.2 µM] | · | O=C(O)[C@@H](O)[C@H](O)C(=O)O
-2%[25.9 µM] | 8%[21.6 µM] | 0%[25.5 µM] | CN(C)CC[C@H](c1ccc(Cl)cc1)c1ccccn1
-1%[25.9 µM] | 7%[21.6 µM] | 1%[25.5 µM] | CCN(CC)Cc1cc(Nc2ccnc3cc(Cl)ccc23)ccc1O
-6%&15%&-4% | 1%&6%&5%&8% | ? | CC(C(=O)O)c1cccc(C(=O)c2ccccc2)c1 (configuration not stated)
i | · | -5% | Cc1sc2ncnc(SCC(=O)N3CCN(C(=O)c4ccco4)CC3)c2c1C
-5% | 6% | 20µM*! | CC/C(=C(\c1ccccc1)c1ccc(OCCN(C)C)cc1)c1ccccc1
-3%&-6% | 28%&1%&12% | 14%&-3% | N[C@@H](Cc1cc(I)c(Oc2ccc(O)c(I)c2)c(I)c1)C(=O)O

# Entries of single compounds, looked up by structure.
# Entry for `O=C(O)[C@@H](O)[C@H](O)C(=O)O` = RECQ1 helicase: ·; GoLoco inh red: -3%[14.2 µM]; KDM4E inh: ·
# Entry for `CCN(CC)Cc1cc(Nc2ccnc3cc(Cl)ccc23)ccc1O` = RECQ1 helicase: -1%[25.9 µM]; GoLoco inh red: 7%[21.6 µM]; KDM4E inh: 1%[25.5 µM]

# Single entries from the entries so far.
# Reading for Cc1sc2ncnc(SCC(=O)N3CCN(C(=O)c4ccco4)CC3)c2c1C under KDM4E inh: -5%
# Reading for O=C(O)[C@@H](O)[C@H](O)C(=O)O under GoLoco inh red: -3%[14.2 µM]

# 4 entries out of the list, ordered by length of the SMILES, descending.
RECQ1 helicase | GoLoco inh red | KDM4E inh | molecule
i | 7%[21.6 µM] | -3%[25.5 µM] | C[C@@]12CC[C@@H]3c4ccc(O)cc4CC[C@H]3[C@H]1CC[C@H]2O
i | · | -5% | Cc1sc2ncnc(SCC(=O)N3CCN(C(=O)c4ccco4)CC3)c2c1C
-1%[25.9 µM] | 7%[21.6 µM] | 1%[25.5 µM] | CCN(CC)Cc1cc(Nc2ccnc3cc(Cl)ccc23)ccc1O
-20%&-3% | 3%&1% | ? | N[C@@H](CO)C(=O)O

# A portion of the library, so the mix of outcomes need not match the whole.
